# MITF inhib = MITF inhibition; TRPM1 promoter luciferase, luminescence, 24 h; actives 0.28% (n = 37,000); inhibition, % (concentration not given with the values);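 active = most replicates at 85% or more, or half of them and the mean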;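 also: human melanocyte line stably carrying TRPM1 promoter luciferase reporter; 0% = vehicle wells and 100% = a positive control; the first replicate is given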
# YB-1 expression = YB-1 expression inhibition. U2OS, qRT-PCR YB-1 vs CDIP delta delta Cp, 16 h; active compounds read high; zero = DMSO, each unit about twofold. delta delta Cp (YB-1 minus CDIP) (concentration not given with the values). actives 0.37% (n = 30,000). AID 434959;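 active = delta delta Cp rounded down to an integer at or above 3, about 3 SD of DMSO wells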;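 also: higher means less YB-1 transcript or more CDIP transcript relative to DMSO; stock transfer was 100 nL into about 100 µL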
# Shh pathway inh = blocks Sonic Hedgehog signaling; Shh-LIGHT2 Gli-luciferase reporter, 30 h; inhibition, % (no concentration beside the values); actives 2.1% (n = 22,000);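 active = replicate mean of 65% or more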;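 also: pathway switched on by Shh-conditioned medium diluted 1 in 25 in low serum; 100 nL library stock added to about 40 µL; 0% = median of neutral wells and 100% = positive control level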
# PD-1 reverse act = activators reversing PD-1 mediated T-cell inhibition; primary human CD4 T cells, PD-L1 beads, CellTiter-Glo 96 h; 29,000 tested, under 10 active; activation, % (no concentration beside the values); AID 2316;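 active = replicate mean of 50% or more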;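 also: 0% = median vehicle wells and 100% = positive control; 100 nL library stock added to about 50 µL; numbers are from one replicate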
# Starred values were filed as active, the others as inactive; nt = not tested or not shown. Not all compounds are listed; count on the stated rates, not on these rows.
nr | Compound | Shh pathway inh | MITF inhib | PD-1 reverse act | YB-1 expression
1 | C[C@@H]1CN([C@@H](C)CO)C(=O)c2cc(NC(=O)C3CC3)ccc2O[C@@H]1CN(C)S(=O)(=O)c1cccs1 | nt | -10 | 3.1 | 0.19
2 | Cc1cc(C)c(C#N)c(SCC(O)CNc2ccc(Cl)cc2)n1 (centres undefined) | nt | 14 | 0.7 | nt
3 | Cc1ccc(OCCCSc2nc(C)cc(=O)[nH]2)c(I)c1 | nt | -2 | 1.7 | nt
4 | C[C@H]1CN([C@@H](C)CO)C(=O)Cc2cc(NC(=O)CCC(F)(F)F)ccc2O[C@@H]1CN(C)S(=O)(=O)c1cccs1 | -7 | -7 | nt | -0.17
5 | C[C@H]1CN([C@@H](C)CO)C(=O)c2cc(NC(=O)CCN3CCOCC3)ccc2O[C@@H]1CN(C)C(=O)Nc1cccc2ccccc12 | -15 | 1 | 0.7 | 0.48
6 | CCn1c(SCC(=O)Nc2ccc3c(c2)OCCO3)nnc1-c1ccccc1O | nt | -4 | 0.4 | nt
7 | C[C@@H]1CN([C@@H](C)CO)C(=O)Cc2cc(NS(C)(=O)=O)ccc2O[C@@H]1CN(C)Cc1ccc(-c2ccccc2)cc1 | 13 | 18 | nt | -0.45
8 | CC1(C)CC(=O)C2=C(C1)N(CCN1CCOCC1)C1=C(C(=O)CC(C)(C)C1)C2c1cccc(Cl)c1 | -30 | -13 | -8.9 | -0.14
9 | C[C@@H]1CN([C@@H](C)CO)C(=O)Cc2cc(NC(=O)CCCCCC(=O)Nc3ccccc3N)ccc2O[C@@H]1CN(C)C(=O)NC1CCCCC1 | nt | -1 | 0.4 | 0.1
10 | CCOC(=O)Nc1ccc2c(c1)nc(CN1CCOCC1)n2C | nt | 2 | -1.3 | nt
11 | C[C@@H]1CN([C@@H](C)CO)C(=O)c2cc(NC(=O)CCCN(C)C)ccc2O[C@@H]1CN(C)C(=O)Nc1cccc2ccccc12 | 8 | 13 | 0.3 | 0.29
12 | CC(C)NC(=O)N(C)C[C@H]1Oc2c(NC(=O)NC3CCCCC3)cccc2C(=O)N([C@H](C)CO)C[C@H]1C | 69* | 2 | 0.5 | -0.41
13 | C[C@H]1CN([C@@H](C)CO)C(=O)c2cc(NC(=O)CCN3CCOCC3)ccc2O[C@@H]1CN(C)S(=O)(=O)c1cn(C)cn1 | nt | -4 | 1.3 | -0.02
14 | CS(=O)(=O)N(CC(=O)Nc1ccc2ccccc2c1)c1cccc2ccccc12 | nt | 16 | 2.6 | nt
15 | O=C(O)Cc1ccc(NC(=O)c2cccnc2C(=O)O)cc1 | nt | -13 | 0.3 | nt

nr | Compound | Shh pathway inh | MITF inhib | PD-1 reverse act | YB-1 expression
16 | COc1ccc(S(=O)(=O)Nc2cccc3c2O[C@@H](CN(C)S(=O)(=O)c2ccccc2)[C@H](C)CN([C@H](C)CO)C3=O)cc1 | 2 | -13 | 3.4 | -0.24
17 | C[C@H](CO)N1C[C@H](C)[C@H](CN(C)C(=O)Nc2ccc3c(c2)OCO3)Oc2ccc(NS(=O)(=O)c3ccc(F)cc3)cc2C1=O | nt | 0 | 0.6 | -1.3
18 | Nc1nnc(SCC(=O)c2ccc3ccccc3c2)s1 | nt | -34 | -2.8 | nt
19 | C[C@@H]1CN([C@H](C)CO)C(=O)Cc2cc(NS(=O)(=O)c3cn(C)cn3)ccc2O[C@H]1CN(C)Cc1ccncc1 | 8 | -3 | 0.2 | -0.29
20 | C[C@@H]1CN([C@@H](C)CO)C(=O)Cc2cc(NS(=O)(=O)c3cn(C)cn3)ccc2O[C@@H]1CN(C)S(C)(=O)=O | -7 | 1 | 0.4 | -0.79
21 | C[C@@H]1CN([C@H](C)CO)C(=O)c2cccc(NS(=O)(=O)c3cccs3)c2O[C@@H]1CN(C)Cc1ccncc1 | 14 | -4 | 0.1 | 0.13
22 | CC(C)NC(=O)N(C)C[C@H]1Oc2c(NC(=O)c3ccc(-c4nccs4)cc3)cccc2C(=O)N([C@@H](C)CO)C[C@H]1C | 7 | -15 | -0.7 | -0.97
23 | CC(=O)Nc1ccc(S(=O)(=O)N2CCCC2C(=O)O)cc1 (centres undefined) | 0 | -13 | 1.9 | 0.52
24 | O=C(Nc1cccc(Br)c1)c1cccc2c1C(=O)c1ccccc1-2 | nt | 22 | -0.7 | -0.97
25 | Cc1noc(C)c1NC(=O)Nc1ccc2c(c1)CC(=O)N([C@H](C)CO)C[C@H](C)[C@H](CN(C)S(=O)(=O)c1ccc(F)cc1)O2 | -4 | 10 | nt | 0.13
26 | COc1ccc(S(=O)(=O)N(C)C[C@@H]2Oc3ccc(NC(=O)NC4CCCCC4)cc3CC(=O)N([C@H](C)CO)C[C@@H]2C)cc1 | -1 | 6 | -0.5 | 0.17
27 | O=C(COc1ccc(C(=O)Nc2cccc(C(F)(F)F)c2)cc1)Nc1ccccc1F | nt | -9 | 0.7 | nt
28 | C[C@H]1CN([C@@H](C)CO)C(=O)c2cc(NS(=O)(=O)c3ccc(F)cc3)ccc2O[C@@H]1CN(C)S(C)(=O)=O | 0 | -8 | 0.7 | -0.17
29 | Cc1noc(C)c1S(=O)(=O)N(C)C[C@@H]1Oc2ccc(NS(=O)(=O)c3ccc(Cl)cc3)cc2CC(=O)N([C@H](C)CO)C[C@@H]1C | nt | 5 | 1.1 | -0.21
30 | COC(=O)c1cn(CC(=O)NCC2CCCO2)c2ccccc12 (centres undefined) | nt | -12 | 1.1 | nt

nr | Compound | Shh pathway inh | MITF inhib | PD-1 reverse act | YB-1 expression
31 | N#CCC(=O)NC(=O)NC12CC3CC(CC(C3)C1)C2 | nt | 2 | 0.6 | -0.49
32 | C[C@@H]1CN([C@@H](C)CO)C(=O)c2cc(NS(=O)(=O)c3cccs3)ccc2O[C@H]1CN(C)CC1CC1 | -13 | 7 | 0.8 | -0.26
33 | C[C@H]1CN([C@@H](C)CO)C(=O)c2cccc(NS(=O)(=O)c3ccc(Cl)cc3)c2O[C@H]1CN(C)Cc1ccc(C(=O)O)cc1 | -24 | 5 | 1.0 | -0.25
34 | C[C@H](CO)N1C[C@H](C)[C@@H](CN(C)C)Oc2c(NC(=O)Nc3ccccc3)cccc2C1=O | -1 | -11 | 1.8 | 0.041
35 | COc1ccc(-c2cc(-c3ccccc3)c(-c3ccccc3)nn2)cc1CN1CCOCC1 | 9 | 6 | -0.9 | -0.12
36 | O=C1c2ccccc2C(=O)N1CC1OCc2ccccc2CO1 | -42 | -24 | 3.7 | 0.38
37 | C[C@@H]1CN([C@H](C)CO)C(=O)c2cc(NC(=O)Cc3ccccc3)ccc2O[C@@H]1CN(C)Cc1ccc(C(=O)Nc2ccccc2N)cc1 | nt | -29 | -2.5 | 0.14
38 | C[C@@H]1CN([C@H](C)CO)C(=O)Cc2cc(NS(=O)(=O)c3cn(C)cn3)ccc2O[C@@H]1CN(C)Cc1ccc(C(=O)O)cc1 | nt | -3 | 0.8 | -0.23
39 | Cc1noc(C)c1NC(=O)N(C)C[C@H]1Oc2ccc(N(C)C)cc2C(=O)N([C@@H](C)CO)C[C@H]1C | nt | -3 | 2.5 | 0.41
40 | C[C@@H]1CN([C@H](C)CO)C(=O)c2cc(NS(=O)(=O)c3ccc(Cl)cc3)ccc2O[C@H]1CN(C)S(=O)(=O)c1ccc(Cl)cc1 | nt | 3 | nt | -0.076
41 | Cc1noc(C)c1S(=O)(=O)Nc1ccc2c(c1)C(=O)N([C@H](C)CO)C[C@@H](C)[C@@H](CN(C)Cc1ccc(C(F)(F)F)cc1)O2 | nt | -7 | -0.5 | 0.054
42 | Cc1sc2ncnc(NCCOCCO)c2c1C | nt | 5 | 0.8 | nt
43 | CC(C)NC(=O)Nc1ccc2c(c1)C(=O)N([C@@H](C)CO)C[C@H](C)[C@@H](CN(C)S(=O)(=O)c1cn(C)cn1)O2 | -13 | -14 | 1.1 | 0.4
44 | C[C@H](CO)N1C[C@H](C)[C@H](CN(C)CC2CCCCC2)Oc2ccc(NC(=O)NC3CCCCC3)cc2C1=O | 11 | 5 | -0.5 | -0.5
45 | COc1ccc(OC)c(NC(=O)CN(c2ccccc2Br)S(C)(=O)=O)c1 | nt | -3 | 0.5 | nt

nr | Compound | Shh pathway inh | MITF inhib | PD-1 reverse act | YB-1 expression
46 | C[C@@H]1CN([C@@H](C)CO)C(=O)c2cc(NC(=O)CCC(F)(F)F)ccc2O[C@H]1CN(C)S(=O)(=O)c1cn(C)cn1 | nt | -1 | 0.2 | -0.26
47 | Cc1cc(C)nc(SCCS(=O)(=O)Cc2ccc(Cl)cc2)n1 | nt | -14 | 1.9 | nt
48 | C[C@@H]1CN([C@H](C)CO)C(=O)Cc2cc(NC(=O)C3CC3)ccc2O[C@H]1CN(C)S(=O)(=O)c1ccc(Cl)cc1 | -18 | 7 | 1.9 | 0.12
49 | C[C@H](CO)N1C[C@H](C)[C@H](CN(C)Cc2ccc(C(=O)O)cc2)Oc2c(NC(=O)C3CCOCC3)cccc2C1=O | 6 | -1 | -0.6 | -0.14
50 | C[C@@H]1CN([C@H](C)CO)C(=O)Cc2cc(NS(=O)(=O)c3cn(C)cn3)ccc2O[C@@H]1CN(C)C(=O)Nc1ccccc1 | 9 | -11 | 3.6 | 0.2
51 | C[C@@H]1CN([C@@H](C)CO)C(=O)c2cc(NC(=O)Nc3ccc4c(c3)OCO4)ccc2O[C@H]1CN(C)C(=O)NC1CCCCC1 | 1 | 6 | -0.7 | -0.047
52 | C[C@@H]1CN([C@@H](C)CO)C(=O)c2cccc(NS(=O)(=O)c3cn(C)cn3)c2O[C@@H]1CN(C)C(=O)Nc1ccc(C(F)(F)F)cc1 | -35 | 0 | 2.3 | -0.23
53 | C[C@@H]1CN([C@@H](C)CO)C(=O)c2cccc(NS(=O)(=O)c3ccccc3)c2O[C@@H]1CN(C)Cc1ccc(Oc2ccccc2)cc1 | -1 | 5 | -1.2 | -0.54
54 | Cc1ccc(S(=O)(=O)N(C)C[C@@H]2Oc3ccc(NC(=O)Cc4ccccc4)cc3C(=O)N([C@H](C)CO)C[C@H]2C)cc1 | 8 | -8 | -2.2 | -0.072
55 | C[C@@H]1CN([C@@H](C)CO)C(=O)Cc2cc(NC(=O)Cn3cnnn3)ccc2O[C@@H]1CN(C)Cc1ccc(C(=O)O)cc1 | -17 | 8 | 1.8 | 0.16
56 | C[C@@H]1CCCCO[C@@H](CN(C)Cc2ccc3c(c2)OCO3)[C@@H](C)CN([C@H](C)CO)C(=O)c2cc(NC(=O)CCCN(C)C)ccc2O1 | nt | 0 | 0.6 | 0.059
57 | COc1ccc(S(=O)(=O)Nc2ccc3c(c2)C(=O)N([C@H](C)CO)C[C@H](C)[C@@H](CN(C)C(=O)c2ccccc2)OCCCC[C@@H](C)O3)cc1 | 16 | 0 | nt | -0.25
58 | C[C@@H]1CN([C@H](C)CO)C(=O)c2cc(NC(=O)CCN3CCOCC3)ccc2O[C@@H]1CN(C)Cc1ccc2c(c1)OCO2 | -27 | 12 | -0.6 | -0.3
59 | CSc1nc(C)cc(NC(N)=O)n1 | -12 | -6 | 0.1 | -0.14
60 | C[C@H]1CN([C@@H](C)CO)C(=O)Cc2cc(NS(=O)(=O)c3cccs3)ccc2O[C@H]1CN(C)C(=O)NC1CCCCC1 | -16 | -2 | nt | -0.17

nr | Compound | Shh pathway inh | MITF inhib | PD-1 reverse act | YB-1 expression
61 | CC(C)NC(=O)Nc1ccc2c(c1)CC(=O)N([C@@H](C)CO)C[C@H](C)[C@@H](CN(C)C(=O)Nc1ccc(F)cc1)O2 | 40 | -5 | 0.1 | -0.66
62 | COc1ccc(NC(=O)Nc2ccc3c(c2)CC(=O)N([C@H](C)CO)C[C@@H](C)[C@H](CN(C)C(=O)Nc2ccccc2)O3)cc1 | nt | -8 | -1.1 | 0.18
63 | COc1ccc(S(=O)(=O)N(C)C[C@@H]2Oc3ccc(NS(=O)(=O)c4c(C)noc4C)cc3CC(=O)N([C@H](C)CO)C[C@H]2C)cc1 | -34 | -4 | 0.8 | 0.13
64 | Cc1noc(C)c1NC(=O)N(C)C[C@@H]1Oc2ccc(NS(=O)(=O)c3cccs3)cc2CC(=O)N([C@H](C)CO)C[C@@H]1C | 14 | 2 | 0.1 | 0.041
65 | O=C1CC2(CCCC2)CC(=O)N1CCNCC1COc2ccccc2O1 (centres undefined) | -47 | 1 | -1.0 | 0.44
66 | C[C@@H]1CN([C@H](C)CO)C(=O)c2cc(NC(=O)Cc3cn(C)c4ccccc34)ccc2O[C@H]1CN(C)C(=O)Nc1ccccc1 | -9 | 14 | nt | 0.0053
67 | COc1ccc(NC(=O)Nc2cccc3c2O[C@@H](CN(C)C(=O)Nc2ccc(OC)cc2)[C@@H](C)CN([C@@H](C)CO)C3=O)cc1 | 15 | -32 | 0.1 | 0.12
68 | Cc1noc(C)c1NC(=O)N(C)C[C@H]1Oc2c(NS(=O)(=O)c3ccc(F)cc3)cccc2C(=O)N([C@H](C)CO)C[C@@H]1C | 2 | -2 | 2.6 | -0.26
69 | O=C(COc1ccc(Cl)cc1)N1CCN(Cc2ccc3c(c2)OCO3)CC1 | 28 | 10 | nt | 0.17
70 | O=C(Nc1sccc1C(=O)N1CCOCC1)c1cccnc1 | nt | -14 | 0.8 | nt
71 | Cc1noc(C)c1NC(=O)Nc1cccc2c1O[C@@H](CN(C)S(=O)(=O)c1cccs1)[C@H](C)CN([C@H](C)CO)C2=O | -29 | -9 | 1.1 | -0.14
72 | COc1cc2c(cc1OC)C1Cc3ccc(OC)c(OC)c3CN1CC2 (centres undefined) | 1 | -4 | nt | 0.043

# High-throughput results deposited in PubChem by Broad Institute.
